UCH37 inh = inhibitors of human deubiquitinating enzyme UCH37. Q9Y5K5. purified proteasome/UCH37, Ub-AMC cleavage fluorescence. inhibition, % (no concentration beside the values). 330,000 tested, 0.33% active;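 active = mean of two replicates above 20%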;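 note: 0% = compound-free wells with enzyme and 100% = wells lacking proteasome; stock transfer was 100 nL into about 20 µL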
Target sequence (Q9Y5K5 whole entry, looked up): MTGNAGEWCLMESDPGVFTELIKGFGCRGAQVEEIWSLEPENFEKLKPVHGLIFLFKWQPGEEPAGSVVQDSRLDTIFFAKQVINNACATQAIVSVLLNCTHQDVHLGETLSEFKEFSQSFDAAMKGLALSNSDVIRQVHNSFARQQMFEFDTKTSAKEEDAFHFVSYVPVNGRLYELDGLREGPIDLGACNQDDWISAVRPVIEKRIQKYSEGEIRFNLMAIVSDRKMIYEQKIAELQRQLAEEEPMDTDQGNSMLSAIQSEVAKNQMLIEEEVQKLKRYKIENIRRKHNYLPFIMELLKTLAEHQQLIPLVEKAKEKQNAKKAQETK
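Material: human UCH37 enzyme supplied as purified proteasome complex. Measure: % inhibition of Ub-AMC cleavage fluorescence. Medium: pH 7.4 Tris-HCl (50 mM) with ovalbumin, ATP-MgCl2, DTT. Times: 30 min preincubation with enzyme, 25 min cleavage at room temperature. Detection: AMC fluorescence intensity at 355/460 nm.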
Ecoli rRNA inh = inhibitors of bacterial rRNA selective over humanized ribosomes | E. coli WT GFP vs humanized-ribosome RFP mutants, fluorescence, 24 h; hits give low values; DMSO median 0, no signal -100 | GFP signal change (wild-type ribosome), % (no concentration beside the values) | 350,000 tested, 1.6% active;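 active = significant combined selectivity score with lowered wild-type GFP, culture density cut under 30%, mutant RFP and density less affected; inactive = any of these conditions unmet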; note: one replicate is shown; some compounds called inactive have numbers as strong as hits
E coli growth = E. coli growth inhibition; Escherichia coli growth, OD600, 23 h; hits give low values; OD600 absorbance (concentration not given with the values); AID 1053175; 330,000 tested, 0.21% active;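 active = OD600 absorbance below the run mean of sample wells minus 3.6 SD, in any replicate, cut at about 0.56 in these data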;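 note: stock transfer was 300 nL into about 60 µL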
B2AR ag = activates human beta-2 adrenergic receptor causing internalization; P07550; Am2.2-beta2AR cells, FAP receptor internalization, flow cytometry; reference of the scale not given here; response, % (test concentration not listed); 340,000 tested, 0.43% active; AID 504454;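 active = response above a set limit, near 3 SD of response in nonfluorescent compounds, cut at about 42% in these data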;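 note: stock transfer was 100 nL into about 11 µL; a reference agonist was the positive control; negative values mostly stem from fluorescent compounds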
FGF22 binding = shifts melting point of recombinant human FGF22; Q9HCT0; recombinant FGF22 thermal shift, SYPRO orange fluorescence; percent of sucrose octasulfate shift, DMSO zero; calls only at 9.99 µM; 340,000 tested, 1.5% active;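 active = melting point raised past a set limit in the mean and every replicate; three in four hits are not shown here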
Target sequence (Q9HCT0 whole entry, looked up): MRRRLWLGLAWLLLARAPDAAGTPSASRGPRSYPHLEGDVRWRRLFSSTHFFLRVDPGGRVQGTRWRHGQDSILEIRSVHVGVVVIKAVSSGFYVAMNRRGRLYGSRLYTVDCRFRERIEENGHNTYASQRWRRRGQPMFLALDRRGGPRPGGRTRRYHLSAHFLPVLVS
HNF4A DNA FP = change in binding of human HNF4 alpha to DNA. P41235. HNF4a-FITC DNA binding, fluorescence polarization, 1 h. activity change, % at 10 µM. 360,000 tested, 0.3% active. AID 1224865; in the data active = activity change above about 30%, passing the limit was not always enough;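 note: controls were the assay level and a saturating level of protein; the project sought stronger binding though the title names inhibitors; some compounds called inactive have numbers as strong as hits; positive values seem to mean higher polarization but the record does not say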
ALR inh = blocks human ALR sulfhydryl oxidase activity; inhibition, % (no concentration beside the values); purified ALR, DTT oxidation, H2O2 HRP-luminol luminescence; 290,000 tested, 3.8% active; AID 485317; P55789;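 active = mean and each replicate at 75% or more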;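 note: stock transfer was 7.5 nL into about 7.5 µL; 0% = neutral wells and 100% = wells with inactivated enzyme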
Target sequence (P55789 whole entry, looked up): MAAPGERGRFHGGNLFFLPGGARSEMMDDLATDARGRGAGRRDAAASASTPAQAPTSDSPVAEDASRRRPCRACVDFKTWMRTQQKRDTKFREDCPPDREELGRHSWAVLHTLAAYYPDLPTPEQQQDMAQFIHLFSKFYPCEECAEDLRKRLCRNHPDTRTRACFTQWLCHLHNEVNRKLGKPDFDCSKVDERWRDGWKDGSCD
Ecoli rRNA inh OD600 = second read-out of Ecoli rRNA inh, no call of its own (marks repeat the call); OD600 change, %; measured here: OD600 growth;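 optical density of the mix in the first replicate; 0 = DMSO median and -100 = no signal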
Ecoli rRNA inh RFP = further read-out of Ecoli rRNA inh, marked with its call; RFP signal change, %; measured here: RFP humanized mutant strains;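 first replicate; 0 = DMSO median and -100 = no signal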
Numbers without * were called inactive; i = inactive; . = no result given. Not all compounds are listed; count on the stated rates, not on these rows.

Preview (five entries):
nr	compound	UCH37 inh	Ecoli rRNA inh	Ecoli rRNA inh OD600	Ecoli rRNA inh RFP	E coli growth	B2AR ag	FGF22 binding	HNF4A DNA FP	ALR inh
1	COc1cc(/C=C2\SC(=O)NC2=O)ccc1Oc1ccc([N+](=O)[O-])cn1	9.2	-13	-20	-4.5	0.69	13	i	0.2	98*
2	O=C(CCc1ccccc1)Nc1ccc(NC(=O)c2ccco2)nc1	-0.7	.	.	.	0.71	-7	.	0.8	1
3	NS(=O)(=O)c1ccc(NC(=O)/C=C/c2ccc(S(=O)(=O)NCc3ccco3)cc2)cc1	3.6	1	0	-3.1	0.63	5	i	2.8	-3
4	O=C(NCC1CCCCC1)c1ccc([N+](=O)[O-])cc1	1.2	7	9	-1.8	0.7	-1	i	2.8	-5
5	COC(=O)c1scc(C)c1NS(=O)(=O)c1ccc(NC(C)=O)cc1	1.8	13	10	6.9	0.71	5	i	-0.7	0

Main list, from the first entry:
nr	compound	UCH37 inh	Ecoli rRNA inh	Ecoli rRNA inh OD600	Ecoli rRNA inh RFP	E coli growth	B2AR ag	FGF22 binding	HNF4A DNA FP	ALR inh
1	COc1cc(/C=C2\SC(=O)NC2=O)ccc1Oc1ccc([N+](=O)[O-])cn1	9.2	-13	-20	-4.5	0.69	13	i	0.2	98*
2	O=C(CCc1ccccc1)Nc1ccc(NC(=O)c2ccco2)nc1	-0.7	.	.	.	0.71	-7	.	0.8	1
3	NS(=O)(=O)c1ccc(NC(=O)/C=C/c2ccc(S(=O)(=O)NCc3ccco3)cc2)cc1	3.6	1	0	-3.1	0.63	5	i	2.8	-3
4	O=C(NCC1CCCCC1)c1ccc([N+](=O)[O-])cc1	1.2	7	9	-1.8	0.7	-1	i	2.8	-5
5	COC(=O)c1scc(C)c1NS(=O)(=O)c1ccc(NC(C)=O)cc1	1.8	13	10	6.9	0.71	5	i	-0.7	0
6	Cc1ccc(S(=O)(=O)NCC(=O)NCC(=O)NC(C)c2ccccc2Br)cc1C (configuration not stated)	1.1	-6	-26	4.0	0.7	3	i	3.0	5
7	O=C(NCc1cccnc1)c1cccc(-c2cc3ccccc3oc2=O)c1	-24	-8	-6	-0.8	0.63	-11	i	-2.3	2
8	COc1ccc(N(C)C2=NS(=O)(=O)c3ccccc32)cc1	5.9	.	.	.	0.7	-16	.	2.8	.
9	C/C(=N\NC(=O)c1ccoc1C)c1cccnc1	.	.	.	.	.	0	.	-1.3	-1
10	COc1cc(S(=O)(=O)N2CCCCC2)ccc1NC(=O)c1ccncc1	2.6	5	3	0.4	0.67	2	i	5.0	-4
11	Cc1coc2cc3oc(=O)c(CCC(=O)O)c(C)c3cc12	-49	-9	-10	3.8	0.73	-4	i	1.1	-3
12	Cc1ccc(C(=O)OCC(=O)c2ccc(S(=O)(=O)N3CCCCC3)cc2)o1	2.1	1	2	-0.2	0.7	7	i	-1.5	-7
13	CC(=O)N1CCC2(CC1)C(C#N)=C(N)Oc1c2sc2nc(C)cc(C)c12	5.0	.	.	.	0.7	-17	.	-0.4	.
14	CCC1(CC)NC(=O)N(CC(=O)OCC(=O)Nc2sccc2C#N)C1=O	-0.2	9	14	-4.3	0.69	8	.	0.0	2
15	CC(C)(C#CC(O)(c1ccccc1)c1ccccc1)N1CCCC1	2.5	18	10	2.5	0.68	1	i	0.0	-4
16	CCOC(=O)C1C(O)=CC(=O)CC1c1ccccc1 (configuration not stated)	1.5	11	-3	-5.7	0.57	-8	i	0.2	7
17	CC1(c2ccccc2)NC(=O)N(CC#N)C1=O (configuration not stated)	3.6	12	-3	-1.6	0.74	-2	i	-0.2	-10
18	CCN(CC(=O)Nc1ccc2c(c1)OCCO2)CC(=O)Nc1ccccc1C(F)(F)F	2.2	.	.	.	0.69	-4	i	17	-1
19	COc1cccc(-c2nc(-c3ccc(NC(=O)c4ccncc4)cc3)no2)c1	1.1	.	.	.	0.72	9	.	3.6	5
20	Cc1nnc(N/N=C/c2ccccc2C(F)(F)F)n1N	.	-4	-4	1.0	.	0	i	-1.2	1
21	CCN(c1ccccc1)S(=O)(=O)c1cc(C(=O)O)ccc1C	1.9	.	.	.	0.7	6	.	-20	5
22	CN1CCn2cnc(C(=O)N3CCN(c4ccccc4)CC3)c2C1=O	.	14	7	2.1	.	.	i	0.6	.
23	CN1\C(=C/C=C/C=C/C=[N+](C)C)C(C)(C)c2ccccc21	8.3	11	1	73	0.79	-33	i	102*	.
24	Cc1cc2c(c(=O)o1)C(CCC1CCCCC1)C(C#N)=C(N)O2 (configuration not stated)	-1.4	-21*	-17*	4.3*	0.67	11	i	31	97*
25	O=C(O)CNC(=O)C1(N2C(=O)c3ccccc3C2=O)CCCC1	-0.1	12	9	-3.0	0.69	-2	i	-2.2	.
26	CC(=O)c1ccc(NC(=O)Nc2ccccc2)cc1	4.0	.	.	.	0.64	-3	.	-3.4	-13
27	O=C1/C(=C/c2cccnc2)Oc2cc(OS(=O)(=O)c3ccc(Cl)cc3)ccc21	5.5	.	.	.	0.69	14	.	6.2	-2
28	CCCOc1ccc(C2(C(=O)O)CCCC2)cc1	0.7	.	.	.	0.7	1	.	-2.2	-3
29	CC(C)CCNC(=O)CSc1nnc(-c2ccc(S(=O)(=O)N3CCCC3)cc2)n1C	3.7	.	.	.	0.67	5	.	-2.0	-4
30	CCN(CC)S(=O)(=O)c1ccc2oc(C(=O)N3CCOCC3)c(C)c2c1	3.0	.	.	.	0.7	9	.	-2.8	.
31	COc1ccccc1C(CNC(=O)c1ccc(S(=O)(=O)N2CCCCC2)cc1)N(C)C (configuration not stated)	1.0	.	.	.	0.69	0	i	-3.8	-1
32	O=C(CSc1nnc(-c2ccccc2Cl)o1)N1CCOCC1	-0.4	3	1	1.5	0.69	-3	i	-1.3	4
33	Cc1ccc(S(=O)(=O)N2CCCCC2)cc1C(=O)Nc1ccccn1	2.1	-2	2	1.4	0.67	-7	i	-5.7	-3
34	CC1CC(C)CN(S(=O)(=O)c2ccccc2[N+](=O)[O-])C1 (configuration not stated)	5.4	.	.	.	0.64	4	.	-1.3	2
35	CCOc1ccccc1N(C(=O)c1snc(C(N)=O)c1N)C(C(=O)NC1CCCC1)c1cccs1 (configuration not stated)	-53	6	-7	3.0	0.66	4	i	-1.4	-6
36	COC(=O)c1ccc2nc(-c3ccc(Cl)cc3)c(Cc3ccccc3OC)n2c1	.	-25	-24	-4.4	.	.	i	8.9	.
37	CC(C)COP(=O)(CNC(=O)CN1C(=O)c2ccccc2S1(=O)=O)OCC(C)C	2.3	.	.	.	0.69	-2	.	2.6	-1
38	C=CCN1CN(S(=O)(=O)c2cccs2)c2nc3ccccc3nc21	-2.1	.	.	.	0.72	-1	.	0.0	-20
39	O=C(NCCc1ccccc1)C1CCC(CNS(=O)(=O)c2cccs2)CC1 (configuration not stated)	0.9	10	8	1.7	0.68	0	i	2.9	-20
40	Cc1cccc(C2NC(c3cccc(C)c3)C([N+](=O)[O-])C(C)(C)C2[N+](=O)[O-])c1 (configuration not stated)	3.6	.	.	.	0.69	8	.	-1.4	-3
41	Cc1ccc(SCC(=O)NC(=O)NCc2ccco2)c(C)c1	2.8	.	.	.	0.69	-1	.	-0.6	32
42	CCN1C(=NCCCCO)N[C@@H](c2cccc(C(F)(F)F)c2)C(C(=O)OC)=C1C	.	5	5	-1.1	.	-2	i	2.6	4
43	Cc1ccccc1N1CCN(C2=NC(=O)/C(=C/c3cn[nH]c3-c3ccccc3)S2)CC1	-3.1	14	13	-1.3	0.7	48*	i	-0.1	6
44	COc1ccccc1-c1cc(C(=O)N2CCOCC2)no1	5.2	4	-8	-1.4	0.66	7	i	-3.4	-5
45	COc1ccc(NC(=O)CN2C(=O)COc3ccc(C)cc32)cc1	4.4	11	14	-1.6	0.66	4	i	4.4	.
46	CCNS(=O)(=O)c1ccc(CCC(=O)Nc2ccccc2C(=O)OC)cc1	3.6	.	.	.	0.68	-1	.	4.6	-18
47	COc1ccc(Cl)cc1NC(=O)CN(C)C(C)C(=O)NC(=O)NC1CCCCC1 (configuration not stated)	2.3	-16	-50	12	0.67	1	i	0.4	-2
48	COc1ccc2nc(NC(=O)C3CCN(S(=O)(=O)c4cccnc4)CC3)sc2c1	4.5	-15	-11	-3.1	0.71	9	i	2.1	.
49	O=C(CN1C(=O)C2C3C=CC(C4CC34)C2C1=O)OCC(=O)c1ccccc1 (configuration not stated)	4.6	.	.	.	0.71	-5	.	-0.1	-22
50	CCCC(=O)C1=C(N(C)c2ccccc2)CC(C)(C)CC1=O	5.1	4	12	3.8	0.67	6	i	2.7	-1
51	COC(=O)Nc1ccc(S(=O)(=O)N2CCC(Cc3ccccc3)CC2)cc1	-0.4	.	.	.	0.71	5	.	-0.1	7
52	O=c1c2cnn(-c3ccccc3)c2nc(-c2cccs2)n1-c1ccc(Cl)cc1	-2.7	.	.	.	0.75	-3	.	3.6	-11
53	CCS(=O)c1ccccc1C(=O)OCC(=O)N1CCC(c2ccccc2)=N1 (configuration not stated)	-3.0	-8	-11	-1.5	0.67	-10	i	-0.2	0
54	O=C(Nc1ccc(Br)cc1)C1CC(O)CN1C(=O)Oc1ccccc1 (configuration not stated)	0.5	4	10	1.4	0.65	10	i	2.8	-2
55	COc1ccc2nc(N(CCN(C)C)C(=O)/C=C/c3cccs3)sc2c1	3.4	-19	0	35	0.65	-4	i	-4.0	11
56	CC(C)N(C(=O)CSc1nnnn1C1CCCC1)C(C)C	0.4	10	0	1.1	0.62	1	i	4.5	-3
57	CCCCCOc1ccccc1C(=O)NCCC(=O)O	3.8	.	.	.	0.71	13	.	5.9	-2
58	CCC(OC(=O)c1nsc(Cl)c1Cl)C(=O)NCCc1ccccc1 (configuration not stated)	1.4	.	.	.	0.66	-8	i	1.1	-8
59	COc1ccc(/C=C/C(=O)c2cc(Cl)cc(Cl)c2O)c(OC)c1	1.8	16	15	-7.7	0.73	14	i	1.0	-8
60	CCOc1ccc(C(=O)Nc2c3c(nn2-c2cccc(Cl)c2)CS(=O)C3)cc1 (configuration not stated)	4.7	.	.	.	0.7	-14	.	0.8	-3

Continuation:
nr	compound	UCH37 inh	Ecoli rRNA inh	Ecoli rRNA inh OD600	Ecoli rRNA inh RFP	E coli growth	B2AR ag	FGF22 binding	HNF4A DNA FP	ALR inh
61	Cc1ccc(/C=C/C(=O)Nc2ccc([N+](=O)[O-])c(NC(=O)/C=C/c3ccc(C)o3)c2)o1	7.7	-7	10	5.0	0.71	14	i	-8.1	.
62	Cc1ccn2c(CC(C)(C)C)c(-c3ccc(F)cc3)nc2c1	.	-14	-41	18	.	.	i	-1.5	.
63	CCn1c(C)cc(C(=O)CSc2nnc(-c3ccco3)o2)c1C	-0.1	9	8	1.8	0.69	1	i	2.1	3
64	CC(C)[C@H](NS(=O)(=O)c1ccc2c(c1)OCCO2)C(=O)OCC(=O)Nc1cc(Cl)ccc1Cl	4.0	.	.	.	0.72	2	.	-0.3	-18
65	CC(=O)N1CCc2cc(S(=O)(=O)CCC(=O)Nc3ccc(Cl)cc3F)ccc21	2.7	14	18	2.2	0.69	-19	i	2.4	45
66	COc1cccc(N/C=C/C(=O)c2ccc(C)cc2)c1	-3.3	-5	0	0.0	0.66	7	i	0.8	.
67	CCOC(=O)c1cc2c(=O)n3ccccc3nc2n(Cc2ccco2)c1=NC(=O)c1ccccc1OC	-196	-1	0	1.9	0.73	14	i	-0.7	.
68	COc1ccc(CC(=S)NCCc2ccccc2)cc1	1.9	-16	-14	-1.7	0.64	-3	i	4.9	.

Bioassay records (PubChem)
